# AID504770: growth inhibitors of E. coli YBA685 in a screen for V. cholerae RctB (chromosome II replication) inhibitors; 0.27% of 130,000 active; z-score (concentration not given with the values); E. coli YBA685 rctB-dependent plasmid, OD600 growth, 3 h; active compounds read low;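 active = z-score under -2 on both plates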;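 note: wells of about 30 µL received 100 nL stock; score is relative to mean and SD of the test wells; the first replicate is given; strong numbers were not always called active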
# Ba CapD inh: CapD enzyme inhibition | purified CapD enzyme, fluorescence intensity read-out; active compounds read low; some hits fall short of the stated cut | z-score (concentration not given with the values) | 0.23% of 140,000 active | AID 492967;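 active = z-score under -4 in either of two replicates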;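 note: stock transfer was 100 nL into about 40 µL; score is relative to mean and spread of the plate; one replicate is shown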
# * = called active by the depositor; x = not tested or not shown; & = joins results of further samples. This is a subset; the hit share may differ from the screen's.
SMILES,AID504770,Ba CapD inh
O=C(NCC(c1ccc(F)cc1)N1CCOCC1)C(c1ccccc1)c1ccccc1 (configuration not stated),0.1,0.4
S=c1[nH]nc(-c2ccccc2)o1,-0.35&-0.85,5.8
CCC(C)(C(=O)NC1CCCCC1)N(C(=O)c1ccccn1)c1ccccc1 (configuration not stated),x,0.29
CCOC(=O)C1=C(C)N=c2s/c(=C3\C(=O)N(C(C)=O)c4ccccc43)c(=O)n2C1c1ccc(OC)cc1 (configuration not stated),x,-0.18
C=CCn1c(C)cc(C(=O)CSCc2nc3sc(C)c(C)c3c(=O)[nH]2)c1C,3.6,x
CC1CN(C(=O)c2cc3n(n2)C(C(F)(F)F)CC(c2ccco2)N3)CC(C)O1 (configuration not stated),-0.15,x
CCOC(=O)C1=C(C)OC(N)=C(C#N)C1c1ccsc1 (configuration not stated),x,0.22
COCc1cc(=O)[nH]c(-c2ccc(C(F)(F)F)cc2)n1,-0.3,-0.15
CC(C)CN1CC(c2nc3ccccc3n2CCCN(C)C)CC1=O (configuration not stated),-1.1,-0.3
Cc1cc(C)cc(N=C2NC(=O)/C(=C/c3cccc([N+](=O)[O-])c3)S2)c1,x,-0.38
Cc1cc(OCC(O)CN2CCN(c3ccccn3)CC2)ccc1Cl (configuration not stated),-0.5,0.9
CC1(NS(=O)(=O)c2ccccc2)CCS(=O)(=O)C1 (configuration not stated),-0.6,x
CC(C)C(NC(=O)C1CCCCC1)C(=O)N1CCN(c2ccc(F)cc2)CC1 (configuration not stated),-0.2,-0.27
Cc1cccc(N/C(=N\S(=O)(=O)c2ccc(Cl)cc2)Nc2nc(C)cc(C)n2)c1,3.1,-1.4
COc1cccc(C(=O)Cn2c(=O)n(CCc3ccccc3)c(=O)c3cc(OC)c(OC)cc32)c1,-1.4,0.41
Cn1c(SCC(=O)N/N=C/c2ccccc2)nc2ccccc21,-0.15,0.4
Cc1ccc2c(c1)C(=O)CCCO2,1.9,x
N#Cc1cc(C(=O)c2cccs2)c(C(F)(F)F)nc1SCc1ccccc1,0.25,46
COc1ccc(CC(=O)N2C(=O)c3ccc(N)cc3C2=O)cc1OC,-0.4,x
CS(=O)(=O)c1cnc(-c2ccc(O)cc2)nc1-c1ccccc1,x,-1.1
OCCn1c(C(F)(F)F)nc2ccccc21,-1.2,-0.27
CCOc1ccccc1N/C(SC)=C(/C#N)C(=O)NCc1cccs1,x,-0.02
CSC(=NCc1ccccn1)NC#N,x,-0.61
O=C(CCc1nc(-c2ccccc2F)no1)N1CCC2(CC1)OCCO2,-0.45,0.18
O=C(c1cccs1)N1CCCCC1,-0.55,0.45
Cn1ccsc1=NC(=O)c1cc(Cl)c2c(c1)OCCCO2,0.05,x
CC1(C)N=C(NS(=O)(=O)c2cc(C(F)(F)F)cc(C(F)(F)F)c2)N(c2ccccc2)O1,0.15,-0.58
O=C1CCC(C(=O)NCc2ccccn2)=NN1,-1.2,x
O=C1C(=Cc2cccc3ccccc23)N2CCC1CC2,x,-0.93
COc1ccc(NC(=O)COc2ccc(C)cc2)cc1,-0.5,-1.1
C=CCN1C(=O)C2C(C(=O)NC)C3C=CC2(O3)C1C(=O)NC1CCCCC1 (configuration not stated),2.7,x
COCCn1c(O)c(/C=N/N=C2/C(=O)N(C)c3ccccc32)c(=O)[nH]c1=S,1.6,x
CCC1(c2cccc(OC)c2)CCCCNC1=O (configuration not stated),0.4,-0.57
Cc1cc(C)nc(SC(C)C(=O)Nc2ccccc2C#N)n1 (configuration not stated),0,0.02
CN(c1ccccc1)S(=O)(=O)c1ccc(Cl)c(C(=O)N2CCOCC2)c1,0.2,x
O=C(Nc1cnc2ccccc2c1)c1cc2nc(-c3cccs3)cc(C(F)(F)F)n2n1,x,-0.22
OC1(c2ccc(Br)cc2)CN(c2ccccc2)C2=[N+]1CCS2 (configuration not stated),x,0.53
CN(C)c1ccc(C2NC(=S)NC3=C2CCc2ccccc23)cc1 (configuration not stated),-0.95,0.68
Cc1onc(-c2c(Cl)cccc2Cl)c1C(=O)N(C)c1nnc(C(F)(F)F)s1,0.95,0.06
Cn1c(C(=O)N2CCCc3ccccc32)cc2c(=O)n3ccccc3nc21,-0.65,x

# Nothing new here: 6 of the compounds above.
SMILES,AID504770,Ba CapD inh
CN(c1ccccc1)S(=O)(=O)c1ccc(Cl)c(C(=O)N2CCOCC2)c1,0.2,x
O=C(Nc1cnc2ccccc2c1)c1cc2nc(-c3cccs3)cc(C(F)(F)F)n2n1,x,-0.22
OC1(c2ccc(Br)cc2)CN(c2ccccc2)C2=[N+]1CCS2 (configuration not stated),x,0.53
CN(C)c1ccc(C2NC(=S)NC3=C2CCc2ccccc23)cc1 (configuration not stated),-0.95,0.68
Cc1onc(-c2c(Cl)cccc2Cl)c1C(=O)N(C)c1nnc(C(F)(F)F)s1,0.95,0.06
Cn1c(C(=O)N2CCCc3ccccc32)cc2c(=O)n3ccccc3nc21,-0.65,x

# (listing goes on)
SMILES,AID504770,Ba CapD inh
COc1cccc(-c2cn3c4c(=O)n(C)c(=O)n(C)c4nc3n2-c2ccc(OC(F)(F)F)cc2)c1,x,1
O=C(Nc1ccc(Cl)cc1)c1cc2sccc2nc1C(F)(F)F,x,0.1
COc1ccc(N2CCN(c3nc(C)nc4sc(C)c(C)c34)CC2)cc1,x,-0.46
c1ccc(-c2[nH]ncc2CN2CCN(c3ccccn3)CC2)cc1,0.2,0.32
Cn1c(-c2oc3nc(-c4ccccc4)cc(-c4ccco4)c3c2N)n[nH]c1=S,0.5,7.5
c1ccc(C2CC3CC4(CCCC4)N2O3)cc1 (configuration not stated),-0.5,0.12
O=C(Nc1cc(O)cc([N+](=O)[O-])c1)c1nn2c(C(F)(F)F)cc(-c3cccs3)nc2c1Cl,x,0.25
Cc1cc(OCC(=O)NC2CC2)c2c3c(c(=O)oc2c1)CCC3,0.3,3.7
NS(=O)(=O)c1ccc(CNC(=O)OCCc2ccccc2F)cc1,x,0.54
O=[N+]([O-])c1ccc(C2(O)CN(c3ccc(Cl)cc3)C3=[N+]2CCCS3)cc1 (configuration not stated),x,0
O=C(O)CCOc1ccc(Cl)cc1,0.6,-1.2
CCCCCCC#CCCOC(=O)N1CCN(Cc2cc(OC)c(OC)cc2Br)CC1,x,0.73
COc1ccc(N2CCN(C(=O)C(CC(C)C)NS(=O)(=O)c3ccc4c(c3)oc(=O)n4C)CC2)cc1 (configuration not stated),1.2,-0.57
Cn1c(=O)c2c(nc(NCC3CCCO3)n2Cc2cccc3ccccc23)n(C)c1=O (configuration not stated),-0.65,-0.07
O=c1[nH]c(-c2ccc(Cl)cc2)nc2sc3c(c12)CCCC3,0.1,0.74
NC(=O)c1ccc(C(F)(F)F)n(Cc2ccc(Cl)c(Cl)c2)c1=O,x,0.05
O=C(Nc1nc2ccc(Cl)cc2s1)c1ccc(C(=O)c2ccccc2)cc1,-0.95,-0.29
O=C(CSc1ncnc2sc(-c3ccccc3)cc12)Nc1ccc2c(c1)OCO2,x,-0.31
COc1ccc(S(=O)(=O)N2CC=C(n3c(=O)[nH]c4ccccc43)CC2)cc1,x,-0.75
Cc1cccc2cc(/C=C3\NC(=S)NC3=O)c(N3CCOCC3)nc12,0.15,-0.14
NC(=O)C1CCN(c2ncccc2[N+](=O)[O-])CC1,x,-0.74
O=C(CSc1nc2ccccc2o1)N1CCN(S(=O)(=O)c2ccccc2)CC1,0.65,x
CCO/C(C)=N\Oc1nc2nonc2nc1O/N=C(/C)OCC,1.1,x
CC(Oc1ccccc1)C(=O)Nc1ccccc1 (configuration not stated),-0.6,x
FC(F)(F)c1cccc(-n2nnnc2-c2ccc(Cl)c(Cl)c2)c1,x,-0.77
Cc1nnc(N(C)C(=O)Cc2ccc3c(c2)OCO3)s1,-0.75,x
CC1=C(C(=O)Nc2cccc(Cl)c2)C(c2ccc(C)cc2)NC(=O)N1 (configuration not stated),x,0.09
CN(C1CCN(Cc2ccccc2OCc2ccccc2)C1)S(=O)(=O)c1ccc(Br)s1 (configuration not stated),x,-0.42
CC12CCC(CC1=NNC(=O)Nc1ccccc1)C2(C)C (configuration not stated),-1,x
c1ccc2nc(-c3nc4ccccc4o3)ccc2c1,1.8,33
Cc1c(C)c2c(c(C)c1OCc1ccccc1)C(CO)C(C)(C)O2 (configuration not stated),-0.65,-0.95
COc1ccc(C(=O)OCc2c(C)noc2C)cc1S(=O)(=O)N1CCCc2ccccc21,-0.05,x
O=C1C2=C(C(c3ccc(Cl)cc3)=NCCN2)C(c2ccc(Br)cc2)N1c1ccccc1 (configuration not stated),x,-0.05
CCCN(C1CCN(C)CC1)S(=O)(=O)c1ccc(NC(=O)c2ccco2)cc1,x,-0.77
Cc1ccc(CN=Cc2ccc(O)c(Cc3c(F)cccc3Cl)c2O)cc1,x,-0.8
O=C(c1cccnc1Cl)N(Cc1ccccc1)Cc1ccccc1,-0.55,-0.26
CC1CC(C)CN(c2ncnc3scc(-c4ccccc4)c23)C1 (configuration not stated),-0.7,-2.8
CCn1cc(CCCC(=O)NCCN2CCN(C)CC2)c2ccccc21,0.1,1.7
CCCCCCOCCOCCOC(=O)NNC(=O)CC1Sc2ccccc2NC1=O (configuration not stated),x,0.3
OC(COc1ccccc1)CN1CCCCC1 (configuration not stated),-0.8,0.005
c1ccc2nc(-c3cn[nH]c3)cnc2c1,x,54
O=C1CC(c2ccccc2)CC2=C1C(c1ccc3c(c1)OCO3)Nc1ccc3ccccc3c12 (configuration not stated),x,35
COc1ccc(S(=O)(=O)n2c(SCC(=O)c3ccc(Cl)cc3)nc3ccccc32)cc1,x,-0.16
COc1ccc(C2SCCN2S(C)(=O)=O)cc1Br (configuration not stated),-1.3,-0.52
CC(C)(C)OC(=O)N1CCCN(C(=O)c2sc3ccccc3c2Cl)CC1,-0.05,0.23
Cc1ccccc1-c1nnn(CC(=O)c2ccc(S(=O)(=O)N3CCCC3)cc2)n1,0,x
O=S(=O)(NCCSCc1ccco1)c1ccc(Br)cc1,-0.6,0.035
CN(C(=O)c1nc2ccccc2nc1Cl)C1CCCCC1,-0.1,0.17
Cc1cccc(NC(=S)Nc2ccc(C)c(NS(C)(=O)=O)c2)c1,x,0.34
O=C(c1ccccn1)N1N=C(C(F)(F)F)CC1(O)c1ccc(F)cc1 (configuration not stated),x,0.23

# Next part
SMILES,AID504770,Ba CapD inh
Cc1nnc2n1NC(c1ccc(Cl)cc1)C(C(=O)N1CCCCCC1)S2 (configuration not stated),0.05,0.25
O=C(CSc1ncccn1)N1CCc2ccccc2C1,-0.45,x
CCCc1nc(NC2CCCCC2)c(C#N)c2c1CCCC2,1,-1.5
CC1=C(c2ccc(C)c(C)c2)S(=O)(=O)NC1=O,-0.85,-0.72
O=C(Cn1nc(-c2ccccc2)ccc1=O)Nc1ccc(N2CCN(C(=O)c3ccccc3)CC2)cc1,1.4,x
CCCn1c(=O)n(C)c(=O)c2c(SC(C(=O)NC(N)=O)C(C)C)nc(CC(C)C)nc21 (configuration not stated),0.15,x
Cc1nc(SCc2c(F)cccc2Cl)[nH]c(=O)c1Cc1c(F)cccc1Cl,x,0.54
CCCCn1c(SCN2C(=O)c3ccccc3C2=O)nc2cc(S(N)(=O)=O)ccc21,-0.4,x
CC1(C)CC(=O)c2cnc(NC(=O)CSc3nc4ccccc4o3)nc2C1,-0.2,0.65
COc1ccc(NC(=O)C2c3ccccc3C(=O)N3CCCCC23)cc1OC (configuration not stated),-0.4,-0.12

# Part of the list above, field by field:
molecule: c1ccc2nc(-c3cn[nH]c3)cnc2c1
  AID504770: x; Ba CapD inh: 54
molecule: O=C1CC(c2ccccc2)CC2=C1C(c1ccc3c(c1)OCO3)Nc1ccc3ccccc3c12 (configuration not stated)
  AID504770: x; Ba CapD inh: 35
molecule: COc1ccc(S(=O)(=O)n2c(SCC(=O)c3ccc(Cl)cc3)nc3ccccc32)cc1
  AID504770: x; Ba CapD inh: -0.16
molecule: COc1ccc(C2SCCN2S(C)(=O)=O)cc1Br (configuration not stated)
  AID504770: -1.3; Ba CapD inh: -0.52

# More results
SMILES,AID504770,Ba CapD inh
O=C(CSc1c2c(nc3ccc(Cl)cc13)CCCC2)NCCN1CCOCC1,-0.85,0.5
Clc1ccc2c(c1)nnn2CN1CCN(Cn2nnc3cc(Cl)ccc32)C1,x,1.2
COc1cc(OC)nc(Oc2cccc(OC)c2C(=O)O)n1,x,0.05
Cc1cc(C(=O)Nc2cccc(OC(C)C)c2)c(C)o1,0.2,x
Cc1ccc(C)c(N=C2N(C)CC(=O)N2Cc2cccnc2)c1,-0.55,x
Cc1cc2ncn(CC(C)C)c2cc1C,-0.95,-0.17
CC1=CC(C)=Nc2ccc(C)cc2N1,-0.75,-0.07
COc1ccc(CCNC(=S)Nc2ccc(Cl)cc2C)cc1OC,x,0.79
Cc1ccc(S(=O)(=O)/N=C2\NC(=O)CS2)cc1,0.8,0.16
CNc1nc(-c2ccc(Cl)s2)cs1,x,-0.53
O=C(CC1CCCC1)OCc1ccc(Cl)cc1,1.9,0.23
CCNc1nc(SC)ncc1F,-0.25,0.27
O=C(O)C(Cc1ccccc1)N1C(=O)/C(=C/c2ccccc2)SC1=S (configuration not stated),0.1,0.24
COCCN(C1CCN(C(=O)C(c2ccccc2)c2ccccc2)CC1)S(=O)(=O)c1ccc(Cl)cc1,x,-0.49
COC(=O)c1ccc(O)c(/C=N/N(CCO)C2=NS(=O)(=O)c3ccccc32)c1,-0.6,17
FC(F)C(F)(F)c1cc(-c2ccccc2)n[nH]1,-0.15,-0.3

# Single records (already shown). Order of values: AID504770 | Ba CapD inh
# COC(=O)c1ccc(O)c(/C=N/N(CCO)C2=NS(=O)(=O)c3ccccc32)c1 reads -0.6 | 17
# O=C(CC1CCCC1)OCc1ccc(Cl)cc1 reads 1.9 | 0.23
# FC(F)C(F)(F)c1cc(-c2ccccc2)n[nH]1 reads -0.15 | -0.3
# COCCN(C1CCN(C(=O)C(c2ccccc2)c2ccccc2)CC1)S(=O)(=O)c1ccc(Cl)cc1 reads x | -0.49
# CCNc1nc(SC)ncc1F reads -0.25 | 0.27

# Assay outcomes (PubChem BioAssay)
